# MT1-MMP act inh: blockers of MT1-MMP proenzyme processing, primary screen, HT1080 RFP-PRO-GFP cells, GFP/RFP fluorescence; GFP/RFP ratio fluorescence, overnight; percent of plate control window, DMSO zero; GFP/RFP ratio change, % at 20 µM; actives 0.061% (n = 360,000); AID 651647, 2012;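 active = GFP/RFP ratio change of at least 30% with cell ATP level not reduced by more than half and red fluorescence within 50% of control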; also: strong numbers were not always called active
#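 Assay system – RFP-PRO-GFP reporter HT1080 cells · Compound dosing – single dose of 20 µM compound, 1% DMSO final · Incubation – overnight compound exposure at 37 °C · Measure – GFP/RFP fluorescence ratio · Benchmarks – DMSO wells and RFP-L50D-GFP cells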
# CSC inhib: cancer stem cell viability inhibitors, primary screen, luminescence | cancer stem cell-like cells viability | inhibition, % at 7.5 µM | actives 1.1% (n = 300,000) | AID 2717, 2010;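 active = mean at 75% or more and at least half the replicates too; inconclusive = mean and replicates disagree; tested in HMLE shEcad cells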;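 also: 0% = median of negative and 100% = median of positive control wells; the first replicate is given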
# Env fusion inh: inhibitors of HIV-1 Env-driven cell-cell fusion, primary screen, HeLa-JRFL effector, CEM21 target cells, luciferase; inhibition, % at 12.3 µM; actives 1.1% (n = 360,000); AID 651610, 2012;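 active = mean replicate inhibition score of at least 50 and every replicate individually at or above 50; inconclusive = only one of the two criteria met; inactive = mean below 50 and not all replicates reaching 50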;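 also: 0% = plate neutral controls and 100% = maraviroc near 300 nM; one replicate is shown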
# UUG fidelity: modulators of yeast start codon fidelity, primary screen, whole organism, S. cerevisiae, single point, plate reader | S. cerevisiae UUG-firefly luciferase reporter, luminescence/redox ratio | actives 0.13% (n = 350,000) | activity score, % at 18.7 µM;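 active = replicate mean at a twofold rise or more, about +100% in these data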;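 also: firefly luciferase made from a UUG start codon reports start codon fidelity; reporter light over untreated wells divided by growth signal over untreated wells; some hits fall short of that in this replicate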
# Rce1 inhib: yeast Rce1p protease inhibitors, primary screen, biochemical, fluorescence, cell-free homogeneous | CAAX prenyl protease 2 (Saccharomyces cerevisiae (strain ATCC 204508 / S288c)), Q03530 | actives 0.27% (n = 290,000) | calls only | yeast membranes, quenched prenylated peptide cleavage fluorescence | AID 2563, 2010;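 active = fall in fluorescence gain of 50% or more versus controls, with final raw signal at or below 3038400; inconclusive = same 50% fall but final raw signal above 3038400; inactive = fall in fluorescence gain under 50%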;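 also: plate controls were neutral control wells for no effect and wells lacking membranes for full effect; tested at 10 µM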
# Target sequence (Q03530 whole entry, looked up): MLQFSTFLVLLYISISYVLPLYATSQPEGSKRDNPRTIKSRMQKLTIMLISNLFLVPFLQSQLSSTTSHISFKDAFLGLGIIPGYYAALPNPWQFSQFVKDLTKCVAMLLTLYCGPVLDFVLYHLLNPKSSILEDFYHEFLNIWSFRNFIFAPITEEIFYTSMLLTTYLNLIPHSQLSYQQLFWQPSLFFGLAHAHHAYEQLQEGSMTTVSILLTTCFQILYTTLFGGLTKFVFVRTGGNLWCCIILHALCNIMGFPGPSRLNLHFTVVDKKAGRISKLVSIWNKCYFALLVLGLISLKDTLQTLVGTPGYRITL
# eIF4H FP inh: human eIF4H binding inhibitors, primary screen, translation initiation inhibitor project, biochemical, uHTS, fluorescence polarization. Eukaryotic translation initiation factor 4H (Homo sapiens), Q15056. eIF4H fluorescence polarization binding assay. inhibition, % at 35 µM. actives 0.94% (n = 290,000). AID 2012, 2009;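 active = 50% or more with normal probe brightness, or confirmed in later tests; inconclusive = above 50% with abnormal brightness, or retests that disagree; inactive = below 50% or failed in later tests; about a fifth of its hits are not listed in these tables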;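 also: calls also rest on retests at 20 µM and on dose response follow-up; 0% = protein and probe with vehicle and 100% = probe without protein; strong numbers were not always called active; many hits fall short of the cut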
# PABP FP inh: PABP poly(A) RNA binding inhibitors, primary screen, biochemical, fluorescence polarization, uHTS; Polyadenylate-binding protein 1 (Homo sapiens), P11940; inhibition, % at 35 µM; actives 1% (n = 290,000);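 active = 50% or more with normal probe brightness, or confirmed in later tests; inconclusive = above 50% with abnormal brightness, or retests that disagree; inactive = below 50% or failed in later tests; about a fifth of its hits are not listed in these tables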;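 also: calls also rest on retests at 20 µM and on dose response follow-up; controls were probe without protein and protein plus probe with vehicle; some compounds called inactive have numbers as strong as hits; many hits fall short of the cut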
# MT1-MMP act inh RFP: further read-out of MT1-MMP act inh, marked with its call; RFP signal change, %; measured here: RFP expression control read;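 0 = vehicle wells; hits needed this value within 50% of zero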
# Numbers without * were called inactive; i = inactive; ? = inconclusive; · = no result given. Outcome played no part in choosing rows; overall some 2.9% were active at least once.
SMILES,MT1-MMP act inh,MT1-MMP act inh RFP,CSC inhib,Env fusion inh,UUG fidelity,Rce1 inhib,eIF4H FP inh,PABP FP inh
CNC(=O)NCC12CC3CC(CC(C3)C1)C2,10,3,-4,·,-8,i,0,-11
Cc1ccc(S(=O)(=O)CCC(=O)Nc2cccc(S(=O)(=O)N3CCCCCC3)c2)cc1,7,-15,·,12,-3,·,·,·
O=C(OCc1cnc(Cl)s1)c1cccc(Cl)c1Cl,4,3,-13,·,·,i,6,1
O=C(Cn1c(-c2ccccc2)c[n+]2ccsc12)c1ccc([N+](=O)[O-])cc1,-9,-12,22,-39,9,i,0,-1
O=C(O)CNC(=O)c1ccccc1NC(=O)c1ccco1,1,4,-7,-59,-9,·,-13,-1
Cc1cc(C(=O)O)c(=O)[nH]c1C,1,5,-7,-3,-13,i,-10,-4
CCOc1ccc(NC(=O)c2ccc3snnc3c2)cc1,-2,-10,-7,·,-21,i,-1,-9
COc1ccc(S(=O)(=O)NCC(c2ccc3c(c2)OCO3)N2CCOCC2)cc1C (stereo not given),-8,-4,1,34,·,i,·,·
COc1cccc(S(=O)(=O)Nc2cccc(C(=O)N3CCCCCC3)c2)c1,0,1,-6,-6,-3,i,-7,4
CCCN(C(=O)Cc1ccc(S(=O)(=O)N2CCOCC2)s1)c1c(N)n(Cc2ccccc2)c(=O)[nH]c1=O,-21,8,-15,-18,6,i,43,19
O=C1CC(=Nc2ccccc2)NN1c1ccccc1,-10,-13,130*,-10,·,i,-3,4
Nc1cc(=O)[nH]c(SCC(=O)N2CCC(Cc3ccccc3)CC2)n1,-3,-5,4,·,-8,·,·,·

# The list goes on, starting with the last 3 of the part before.
SMILES,MT1-MMP act inh,MT1-MMP act inh RFP,CSC inhib,Env fusion inh,UUG fidelity,Rce1 inhib,eIF4H FP inh,PABP FP inh
CCCN(C(=O)Cc1ccc(S(=O)(=O)N2CCOCC2)s1)c1c(N)n(Cc2ccccc2)c(=O)[nH]c1=O,-21,8,-15,-18,6,i,43,19
O=C1CC(=Nc2ccccc2)NN1c1ccccc1,-10,-13,130*,-10,·,i,-3,4
Nc1cc(=O)[nH]c(SCC(=O)N2CCC(Cc3ccccc3)CC2)n1,-3,-5,4,·,-8,·,·,·
COc1ccc(C(=O)COC(=O)CCCn2c(=O)oc3ccccc32)cc1,-3,-3,-7,-44,-11,i,·,·
CCOC(=O)c1c(C)[nH]c(C(=O)OCc2ccccc2F)c1C,0,-3,1,-157,-32,i,-11,-10
COc1ccc(CCNC(=O)C(C)OC(=O)c2cccs2)cc1OC (stereo not given),-5,-3,10,-4,-20,i,-4,2
Cc1nc(Nc2nc(-c3ccccc3)cc(=O)[nH]2)nc2ccccc12,-1,-7,·,-35,-18,i,·,·
COc1cccc(NC(=O)COC(=O)C2CC2)c1,6,2,-13,·,-1,·,·,·
NNC(=O)CN1C(c2cccc(Cl)c2)=Nc2ccc(Br)cc2C1c1ccccc1 (stereo not given),-6,-5,19,-46,-18,·,-3,-5
Cc1c(C(=O)N2CCCCC2)c(S(=O)(=O)N(C)Cc2ccco2)c(C)n1C,3,3,-15,1,12,i,4,2
Cc1ncc(CN2CCCC(C(=O)Nc3ccc(-c4cccc(F)c4)cc3)C2)cn1 (stereo not given),4,-5,25,23,3,i,-1,-8
CC(C)(C)c1ccc(S(=O)(=O)O/N=C2/CCCCC2c2ccc([N+](=O)[O-])cc2[N+](=O)[O-])cc1 (stereo not given),6,5,-10,-41,-13,i,1,20
O=C(CSc1nnc(Cc2ccc3c(c2)OCO3)n1C1CCCCC1)NC1CCCC1,3,3,-10,33,·,i,-1,-8
COc1ccccc1NC(=O)c1ccc(NS(=O)(=O)c2c(C)noc2C)cc1,3,0,-1,·,442*,i,-10,0
O=C(Cn1c(-c2ccco2)nc2ccccc21)N1CCCCC1,-1,4,-15,-141,2,i,-11,-3
O=C(NCc1ccccc1)c1ccc(NC(=O)c2ccco2)cc1,-1,-1,5,-2,-3,i,-7,-1
O=C(CSCc1ccc(F)cc1)Nc1ccccc1,-1,-1,·,-115,-10,i,2,3
Cc1ccc2c(CC(=O)Nc3ccc(N4CCN(C)CC4)cc3C)coc2c1,-5,-2,1,-24,-6,i,2,-6
Cc1ccc2oc(C(=O)N(C)Cc3ccc(C)o3)c(C)c2c1,-1,5,-9,-5,0,i,0,-12
COC(=O)C1C(=O)C(C(=O)c2ccc([N+](=O)[O-])cc2)C(=O)CC1(C)C (stereo not given),-5,-1,-16,12,-16,i,5,6
Cc1cc(Nc2cccc(Cl)c2)n2ncnc2n1,9,4,1,-59,-4,i,-2,6
CC1CCCN(C(c2ccccc2)c2sc3ncnn3c2O)C1 (stereo not given),-3,4,-10,-14,-12,i,-8,2
O=C(C[n+]1ccc(C(=O)N/N=C/c2ccc(OCc3ccccc3)cc2)cc1)c1ccccc1,12,4,10,·,18,i,6,?
Clc1ccc(CO/N=C2\CCCc3nonc32)cc1,3,1,9,-9,2,i,2,-3
O=C(Nc1nc(=O)[nH]s1)c1ccccc1,-1,4,·,-13,·,i,2,10
COc1cc(OC)cc(-c2oc(=O)c3cc(OC)c(OC)cc3c2/C=C/c2ccc(F)cc2)c1,-3,-5,-1,7,17,·,·,·
CCOC(=O)Cn1nc(C)c2c1CCCC2=O,3,5,-3,-84,-25,i,6,5
O=C(Nc1nc(-c2ccncc2)cs1)C1c2ccccc2Oc2ccccc21,-13,-24,50,·,-8,i,-5,4
O=C(COC(=O)c1ccc2c(c1)OCCO2)NCCc1ccccc1,-1,-1,-25,·,6,·,·,·
CCN1C(=O)[C@H]2[C@@H](c3ccc(C(F)(F)F)cc3)N[C@]3(CCCN(Cc4ccc(C)cc4)C3=O)[C@H]2C1=O,1,3,·,2,-8,·,·,·
CCN(CCO)Cc1cn[nH]c1-c1ccc(C)c(C)c1,2,3,7,-104,-6,i,-8,-7
COc1cc(-c2nc3n(n2)C(c2ccncc2)C2=C(CCCC2=O)N3)cc(OC)c1OC (stereo not given),3,2,-9,9,·,i,-11,-11
O=C(c1ccc(-c2ccccc2)c(F)c1)C1CCCN(C(=O)c2cncs2)C1 (stereo not given),0,-14,10,31,-11,i,0,11
O=C(CN1C(=O)CCC1=O)Nc1nc(-c2ccc3ccccc3c2)cs1,-2,0,·,-10,·,i,3,-5
Nc1ncnc2c1ncn2[C@@H]1O[C@H](CO)[C@@H](O)[C@@H]1O,-1,2,-2,·,-19,i,·,·
COc1cccc(C2c3[nH]c4ccccc4c3C[C@H]3C(=O)N(C4CC4)CC(=O)N23)c1 (stereo not given in full),-2,-2,1,4,0,i,-11,8
CCOc1ccc(N/C=C/C(=O)c2ccc(OC)c(OC)c2)cc1,1,5,-1,-6,3,i,2,-9
CC(=O)Nc1ccc(OCc2cnc(Cl)s2)cc1,5,4,·,-6,·,i,7,10
O=c1ccnc(SCCc2ccccc2)[nH]1,1,4,-7,17,-5,i,-7,4
CCCCNC(=O)CCCn1c(=S)[nH]c2cc3c(cc2c1=O)OCO3,0,4,-8,-98,-6,i,1,3
CC1(C)CC(NC(=S)NC(=O)c2cc(Br)ccc2Cl)CC(C)(C)N1,6,1,-11,·,-10,·,·,·
COc1ccccc1OC(C)C(=O)Nc1ccccc1C(=O)NCc1cccnc1 (stereo not given),-1,2,·,9,-20,i,8,0
OC(c1ccccc1)c1nc(-c2cccc(C(F)(F)F)c2)cs1 (stereo not given),-5,-6,·,15,-6,·,·,·
O=C(Nc1c(F)cc(F)cc1Br)c1cc2nc(C(F)F)cc(C(F)F)n2n1,6,-1,-6,·,0,i,3,9
Cc1ccc(S(=O)(=O)N(C)C)cc1NC(=O)COC(=O)C1CC(=O)N(c2ccc3c(c2)OCCO3)C1 (stereo not given),3,1,-2,·,0,i,·,·
Cc1c(C(=O)N2CCCC2)sc(NC(=O)c2cccc(Cl)c2)c1C#N,1,-4,·,·,·,i,-6,13
C/C(=N/NC(=O)c1cc(-c2cccc([N+](=O)[O-])c2)n[nH]1)c1cccc(O)c1,14,-5,-2,-17,·,i,6,6
NC(=O)NC(CC(=O)NCCCc1ccccc1)c1ccccc1Cl (stereo not given),1,-4,-8,3,·,i,0,8
CCOC(=O)c1ccc(S(=O)(=O)NC2CCC(C)CC2)cc1 (stereo not given),5,-5,-6,·,7,·,·,·
COc1ccc(C(C)=O)cc1CN1C(=O)C(Cc2ccccc2)ON=C1c1ncccc1C (stereo not given),0,-1,·,-9,-21,·,·,·
CCOC(=O)C1=C(COC(=O)/C=C/c2ccccc2F)NC(=O)NC1C (stereo not given),3,4,-1,-7,19,i,·,·
CCCCNC(=O)c1cc(-c2ccc(OC)c(OC)c2)on1,7,4,·,11,-21,i,-1,-3
CCOC(=O)[C@@H]1[C@H]2COc3ccccc3[C@H]2N2C(=O)N(c3ccc(Cl)cc3)C(=O)[C@@]12C,-2,-7,1,·,-26,i,10,8
COc1ccc(-c2ccc3c(c2)[C@@H]2C[C@H]4[C@@H](C(=O)N2CC3)[C@H](C)ON4C)cc1,5,-1,·,-45,-8,·,·,·
COCCn1c(SCC(=O)N2CCC(C)CC2)nc2c(c1=O)SCC2,1,0,-2,-2,18,i,-4,1
Cc1cccc([N+](=O)[O-])c1NC(=O)COC(=O)c1nc2nccc(C)n2n1,-2,3,-5,·,-11,·,·,·
CC(C)(C)c1ccc(/C=C/C(=O)N2CCCCC2)cc1,-1,-6,·,-24,1,i,3,21
Cc1ccc(N2CC(C(=O)NC3=NCCS3)CC2=O)cc1 (stereo not given),0,2,-9,i,-1,i,7,-8
Cc1ccc(S(=O)(=O)N(CC(=O)Nc2ccccc2C(=O)O)c2ccccc2)cc1,3,0,-3,-10,·,i,-1,3
CC(NC(=O)C1CCCN(C(=O)c2ccc(Cl)cc2)C1)c1cccc(C(F)(F)F)c1 (stereo not given),3,-1,-9,10,19,·,·,·
CCOC(=O)C1=C(C)NC2=C(C(=O)OC2)C1c1ccccc1 (stereo not given),-3,-3,·,-23,·,i,-16,-4
COc1ccc(CCNC(=O)c2cc3c(=O)n4cccc(C)c4nc3n(CC3CCCO3)c2=N)cc1 (stereo not given),3,-3,16,8,0,i,-13,-4
COc1ccc(OCC(=O)NNC(=S)NC(=O)c2ccc([N+](=O)[O-])cc2)cc1,1,2,24,-1,-4,i,1,6
# Other records follow:
SMILES,MT1-MMP act inh,MT1-MMP act inh RFP,CSC inhib,Env fusion inh,UUG fidelity,Rce1 inhib,eIF4H FP inh,PABP FP inh
CCOC(=O)c1nc(-c2ccccc2)sc1C(C)=O,-1,-3,-12,-60,·,i,6,8
CSCC[C@H](NC(=O)NCCC1=CCCCC1)C(=O)O,-2,2,-12,·,-10,i,13,8
CCCn1c2ccccc2c2cnn(CC(=O)NC3CCCC(C)C3C)c(=O)c21 (stereo not given),1,0,-14,5,-7,i,·,·
Cn1c(NC(=O)c2ccccc2C(F)(F)F)cc(=O)n(C)c1=O,-3,1,11,-125,-6,i,-3,-3
C=CCNC(=S)NNc1nc2c(c(=O)[nH]1)C1(CCCCC1)Cc1ccccc1-2,0,-8,18,0,·,·,12,-9
CC(Nc1cc(N2CCCC2)ccc1[N+](=O)[O-])c1ccccc1 (stereo not given),1,2,-3,·,-1,i,0,-2
